Bioassay records deposited in PubChem by National Center for Advancing Translational Sciences (NCATS).
TRPML1 agonist: human mucolipin-1 channel agonism; Q9GZU1; TRPML1-expressing cells, Ca2+ dye fluorescence, FDSS; host cell line not named in the record; reference of the full effect not given here; activation, % (test concentration not listed); 410,000 compounds, 0.12% hits; in the data active = activation above about 50%; inconclusive = about 30% to 50%; inactive = below about 30%; note: 0% is about no effect; the text of the record puts the active cut at 80%
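TRPML1-DL cells, Tet-induced overnight (~16 h, 37 degrees C), loaded 45-90 min at room temperature with Ca8 no-wash calcium dye plus quencher. FDSS fluorescence: 10 s baseline, compound pin-transfer, 110 s agonist read, then EC80 54-4 (4uM final) and 110 s antagonist read.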
CtBP-E1A inh: blocks the CtBP interaction with E1A. AlphaScreen GST-E1A/His-CtBP binding, 1536-well; active compounds read low; control for the full effect not named in the record. activity change, % (concentration not given with the values). 340,000 compounds, 0.49% hits. AID 651724; in the data active means activity change below about -65%; inconclusive means about -30% to -65%; inactive means above about -30%; note: % is set by controls: 0 for no effect and ±100 for the full control effect
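GST-E1A and His-tagged CtBP (125 nM each as 5X stock) were preincubated with pin-transferred compound for 2 h at 37 °C in the dark, then glutathione donor and nickel acceptor beads were added for 1 h before AlphaScreen reading.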
TRPV1 potentiator: enhances activation of the human vanilloid receptor TRPV1 | Q8NER1 | TRPV1-expressing cells, Fluo-8 calcium influx, capsaicin EC20 potentiation; host cell line not named in the record; control for the full effect not named in the record | potentiation, % at 8.33 µM | 320,000 compounds, 0.02% hits; active means potentiation above 80%; inconclusive means 30% to 80%; inactive means below 30%; note: 0% is about no effect
Target sequence (Q8NER1 whole entry, looked up): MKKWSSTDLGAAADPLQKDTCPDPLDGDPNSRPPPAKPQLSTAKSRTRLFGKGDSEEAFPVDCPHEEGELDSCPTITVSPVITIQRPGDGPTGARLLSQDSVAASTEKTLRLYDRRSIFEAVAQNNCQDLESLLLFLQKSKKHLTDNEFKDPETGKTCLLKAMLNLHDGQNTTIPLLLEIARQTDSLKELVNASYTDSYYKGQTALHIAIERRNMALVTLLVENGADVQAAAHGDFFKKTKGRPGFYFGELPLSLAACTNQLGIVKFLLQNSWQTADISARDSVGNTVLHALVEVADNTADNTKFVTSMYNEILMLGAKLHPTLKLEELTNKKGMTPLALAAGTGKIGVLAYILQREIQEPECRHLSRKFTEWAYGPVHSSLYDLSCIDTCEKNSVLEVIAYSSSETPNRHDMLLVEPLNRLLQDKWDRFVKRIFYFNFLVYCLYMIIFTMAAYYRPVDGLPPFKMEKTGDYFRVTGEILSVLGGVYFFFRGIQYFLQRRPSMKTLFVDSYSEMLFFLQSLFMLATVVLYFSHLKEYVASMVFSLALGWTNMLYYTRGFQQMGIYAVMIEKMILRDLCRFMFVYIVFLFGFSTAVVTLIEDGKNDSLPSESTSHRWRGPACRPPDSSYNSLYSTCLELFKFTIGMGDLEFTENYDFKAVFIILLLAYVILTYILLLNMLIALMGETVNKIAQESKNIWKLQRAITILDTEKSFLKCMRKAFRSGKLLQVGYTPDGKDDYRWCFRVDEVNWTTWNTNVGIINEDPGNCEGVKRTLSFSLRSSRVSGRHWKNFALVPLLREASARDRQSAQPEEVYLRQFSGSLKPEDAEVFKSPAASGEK
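TRPV1-expressing cells were cultured overnight at 35.5C and loaded with Fluo-8 calcium dye for 40 to 90 min at room temperature. After a 10 s baseline, compound was added and calcium influx was read kinetically for 3 min (ex 480/em 520 nm).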
D2 PAM: potentiates the human D2 dopamine receptor allosterically | 360,000 compounds, 0.23% hits | potentiation, % (no concentration beside the values) | P14416 | DiscoveRx D2 beta-arrestin cells, luminescence, 90 min; 100% = 57 uM dopamine signal | AID 624464; active = potentiation of 50% or more; inconclusive = 30% to 50%; inactive = 30% or less;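 note: compound concentration not given in the record; tested on top of an EC20 dose of dopamine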
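PathHunter D2 cells, attached overnight at 37 deg C, received compound in DMSO plus dopamine at EC20 (50 nM final) for 90 min at 37 deg C. Beta-arrestin recruitment was read as luminescence after 1 h with detection reagent at ambient temperature.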
Six1-Eya2 inh: blocks human Six1 binding to Eya2. Q15475+O00167. AlphaScreen GST-Six1/His-Eya2 binding, biochemical; active compounds read low; control for the full effect not named in the record. activity change, % (no concentration beside the values). 360,000 compounds, 0.56% hits. AID 651725; in the data active = activity change below about -65%; inconclusive = about -30% to -65%; inactive = above about -30%; note: % is set by controls: 0 for no effect and ±100 for the full control effect
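AlphaScreen luminescence read after one hour at 37 °C in darkness. Pin-transferred compounds met GST-Six1 and His-Eya2 protein (5X stock 250 nM/500 nM) plus glutathione donor and Ni-chelate acceptor beads (5X, 50 ug/mL).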
TRPML1 blocker: inhibitors of human TRPML1 channel; Q9GZU1; TRPML1-inducible cells, Ca2+ dye fluorescence, FDSS; active compounds read low; inhibition of EC80 agonist-evoked calcium signal; activity change, negative = inhibition, % (test concentration not listed); 390,000 compounds, 0.02% hits; in the data active means activity change below about -50%; inconclusive means about -30% to -50%; inactive means above about -30%;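 note: stimulus is agonist 54-4 at its EC80 concentration; % is set by controls: 0 for no effect and ±100 for the full control effect; compound concentration not given in the record; the text of the record puts the active cut at -80%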
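Calcium fluorescence in TRPML1-DL cells induced overnight with Tet: a 110 s read after compound pin addition, then a 110 s antagonist read after challenge with 54-4 at 4 uM final (EC80).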
Active calls of the source: *; ? = inconclusive; / = not tested or not shown.

no. | canonical_smiles | TRPML1 agonist | CtBP-E1A inh | TRPV1 potentiator
1 | O=C(CNC(=S)N(CCCN1CCOCC1)Cc1cccs1)N1CCCC1 | 0.2 | -13 | 12
2 | C=CCNC(=S)N1N=C(c2ccco2)CC1c1ccco1 (centres undefined) | -0.9 | -8 | /
3 | Cn1cnnc1SCC(=O)c1ccc2c(c1)CCCC2 | 0.8 | -4 | 0
4 | COc1ccc(-n2nnnc2C(c2ccnc3ccccc23)N2CCN(C/C=C/c3ccccc3)CC2)cc1 (centres undefined) | 0.8 | ? | /
5 | CC1(Cc2cc(Cl)ccc2C(F)(F)F)C(=O)Nc2cc(C(F)(F)F)ccc21 (centres undefined) | 0.2 | 2 | /
6 | CCOc1cc(CNc2ccc3cn[nH]c3c2)ccc1OC | 0.1 | 17 | 3
7 | O=C(NCc1ccccc1)c1ccc(-c2ccccc2F)o1 | 1.1 | 11 | -8
8 | Nc1c2c(=O)oc(-c3ccccc3)cc2nn1-c1ccccc1 | 0.0 | -8 | -8
9 | CCC(=O)NNc1nc2c(C)c(C)ccc2s1 | 2.1 | 14 | -1
10 | O=C(O/N=C1\CCS(=O)(=O)c2sccc21)C1CC1 | 0.8 | / | 6
11 | O=C(NCc1ccccn1)c1cc(S(=O)(=O)N2CCCCCC2)ccc1Cl | 0.8 | -16 | 3
12 | Fc1ccc(N2N=C(c3cccs3)CC2c2ccco2)c(F)c1 (centres undefined) | 0.5 | 127 | 21
13 | Cc1cccc(Cc2c(C)nc3nc(SCC(=O)NCc4ccco4)nn3c2C)c1 | -0.5 | -3 | -4
14 | Cc1nc(C(=O)N2CCCC(Nc3ccc(C)c(C)c3)C2)cs1 (centres undefined) | 0.6 | 2 | -20
15 | O=C(Cn1cc(C(F)(F)F)cc(Cl)c1=O)Nc1cccc(S(=O)(=O)N2CCCCC2)c1 | 0.5 | 1 | 1

no. | D2 PAM | Six1-Eya2 inh | TRPML1 blocker
1 | -14 | -4 | -15
2 | -1 | -18 | 0
3 | -1 | -1 | 6
4 | -7 | -7 | /
5 | -11 | -1 | /
6 | ? | ? | 1
7 | -17 | -4 | -7
8 | 7 | -9 | 8
9 | -2 | 3 | -4
10 | -9 | 0 | 13
11 | -5 | -6 | -4
12 | -4 | 112 | -6
13 | 10 | -8 | 2
14 | 6 | 3 | -8
15 | -5 | 4 | -19

More records follow.
no. | canonical_smiles | TRPML1 agonist | CtBP-E1A inh | TRPV1 potentiator
16 | COCCNC(=O)Cn1cnc2ccc(S(=O)(=O)N3CCC(C)CC3)cc2c1=O | -0.3 | 7 | -12
17 | Clc1ccc(OCCn2ccnc2)c2ccccc12 | 0.2 | -1 | 0
18 | c1ccc(-c2ccccn2)nc1 | -0.6 | -18 | 3
19 | CN1CCN(C(=O)CN(CCc2ccccc2)S(C)(=O)=O)CC1 | 0.3 | 10 | 4
20 | Cc1ccc(C(=O)NC2CC(C)(C)NC(C)(C)C2)cc1 | 0.2 | 2 | 1
21 | O=C(NCCCNC(=O)c1cncc(O)c1)c1cncc(O)c1 | -0.4 | / | -2
22 | O=C(CCN1C(=O)/C(=C/c2cccc(Br)c2)SC1=S)NNC(=O)c1cccnc1 | 0.0 | -17 | 24
23 | CC(=O)Nc1ccc(NC(=O)C(C)OC(=O)CNS(=O)(=O)c2ccc(Br)cc2Cl)cc1 (centres undefined) | -0.5 | 0 | -1
24 | CCn1c(=O)cc(OCC(=O)Nc2nc(C)cs2)c2ccccc21 | -0.6 | -1 | 28
25 | O=S(=O)(Cc1cc(Sc2ccccc2)nc(-c2ccccc2)n1)c1ccccc1 | -0.1 | 3 | -5
26 | NC(=O)C1CCN(C(=O)c2ccc3ccccc3c2)CC1 | -0.6 | 3 | 5
27 | O=C(CN1CCOCC1)NN1CC(=O)N(c2ccc(Cl)cc2)CC1=O | 0.4 | 3 | 5
28 | CCN(CC)c1ccc(/C=N/n2c(=S)[nH]nc(C)c2=O)cc1 | -0.6 | -19 | -3
29 | COc1ccc(CNc2nc(-c3cccnc3)nn2C(=O)C(C)C)cc1 | -0.2 | 0 | -25
30 | CN(C)C(=O)C(=O)c1cccn1-c1ccccc1C#N | 0.8 | 17 | -2

no. | D2 PAM | Six1-Eya2 inh | TRPML1 blocker
16 | -2 | -2 | 12
17 | -10 | -5 | 14
18 | -6 | -17 | 93
19 | 2 | 6 | -13
20 | -4 | 9 | 11
21 | -2 | 0 | -10
22 | -4 | -4 | -10
23 | -8 | 25 | -7
24 | -3 | -7 | 6
25 | -34 | -6 | 38
26 | -1 | -3 | 23
27 | -3 | 7 | 3
28 | 14 | -9 | 1
29 | 1 | -4 | 11
30 | -6 | 5 | 13

Reformatted: results already given
16	COCCNC(=O)Cn1cnc2ccc(S(=O)(=O)N3CCC(C)CC3)cc2c1=O
23	CC(=O)Nc1ccc(NC(=O)C(C)OC(=O)CNS(=O)(=O)c2ccc(Br)cc2Cl)cc1 (centres undefined)
22	O=C(CCN1C(=O)/C(=C/c2cccc(Br)c2)SC1=S)NNC(=O)c1cccnc1
20	Cc1ccc(C(=O)NC2CC(C)(C)NC(C)(C)C2)cc1
24	CCn1c(=O)cc(OCC(=O)Nc2nc(C)cs2)c2ccccc21
27	O=C(CN1CCOCC1)NN1CC(=O)N(c2ccc(Cl)cc2)CC1=O
compound no.	16	23	22	20	24	27
TRPML1 agonist	-0.3	-0.5	0.0	0.2	-0.6	0.4
CtBP-E1A inh	7	0	-17	2	-1	3
TRPV1 potentiator	-12	-1	24	1	28	5
D2 PAM	-2	-8	-4	-4	-3	-3
Six1-Eya2 inh	-2	25	-4	9	-7	7
TRPML1 blocker	12	-7	-10	11	6	3

Next section:
no. | canonical_smiles | TRPML1 agonist | CtBP-E1A inh | TRPV1 potentiator
31 | CN(C)C(=O)c1cc(C(=O)c2c(F)cccc2F)c[nH]1 | 1.5 | 6 | -5
32 | O=C1OCCC1Sc1nc2ccccc2c(=O)n1Cc1ccccc1 (centres undefined) | 0.2 | 6 | 0
33 | COc1cccc(-c2cc3nc(NCc4ccccc4F)n(C)c(=O)c3s2)c1 | -0.6 | 6 | /
34 | CCC(C)(C)NC(=O)C(c1cccn1C)N(C(=O)Cn1nnc2ccccc21)c1ccc(OC)cc1OC (centres undefined) | 0.9 | -3 | -18
35 | CN(C)c1ccc(CNn2cnnc2SCC(=O)NC(C)(C)C)cc1 | -0.6 | 12 | 13
36 | CCOC(=O)C1CCN(c2c(NCc3ccc(C(=O)NC4CCCC4)cc3)c(=O)c2=O)CC1 | -1.1 | -1 | /
37 | O=C(CN1CCOCC1)N/N=C/c1ccccc1 | 0.4 | 1 | -14
38 | Cc1cc(C)n(CC(O)COc2ccc(C(C)(C)C)cc2)n1 (centres undefined) | 4.3 | / | -3
39 | CC(C)CC(NC(=O)C(COCc1ccccc1)NC(=O)OC(C)(C)C)C(=O)NN (centres undefined) | 2.9 | / | 4
40 | COc1ccc(OCC(=O)NNC(=O)c2cc3ccccc3o2)cc1 | 0.1 | 2 | -3
41 | Cc1ccc(C)c(S(=O)(=O)N2CCN(C(=O)CSc3ccccc3)CC2)c1 | 0.0 | 4 | -3
42 | C[C@@H]1C(=O)O[C@H]2C[C@@]34[C@H]5C[C@@H](C(C)(C)C)[C@]36[C@@H](OC(=O)[C@@H]6O)O[C@@]4(C(=O)O5)[C@]21O | 0.1 | 12 | 13
43 | FC(F)(F)c1cc(CCN2CCNC[C@@H]2CC2CCCCC2)cc(C(F)(F)F)c1 | 2.7 | 0 | /
44 | Nc1cc2c([N+](=O)[O-])cccc2o1 | 4.9 | -8 | 9
45 | Cc1ccc(S(=O)(=O)N2CCOCC2)cc1NC(=O)CSc1nnc(C2CC2)n1C1CC1 | -0.6 | 5 | 5

no. | D2 PAM | Six1-Eya2 inh | TRPML1 blocker
31 | -2 | 13 | 23
32 | -6 | -1 | 21
33 | -6 | 3 | /
34 | -12 | -4 | 2
35 | -1 | 0 | 14
36 | -3 | -5 | 5
37 | -3 | -8 | -19
38 | -5 | 1 | 9
39 | -9 | -10 | 2
40 | -1 | 3 | 2
41 | ? | 0 | -11
42 | 4 | 0 | -1
43 | -14 | 18 | -23
44 | -8 | -3 | 54
45 | -8 | 1 | 1

Carrying on.
no. | canonical_smiles | TRPML1 agonist | CtBP-E1A inh | TRPV1 potentiator
46 | COc1ccc(CCNC(=O)C2CCN(S(=O)(=O)c3ccc(Cl)cc3)CC2)cc1OC | -0.2 | 0 | -15
47 | COc1ccc(OC)c(-c2csc(N(Cc3ccco3)C(=O)c3cccs3)n2)c1 | -0.4 | 0 | -13
48 | Cc1c(C)c2ccc(O[C@@H]3O[C@H](CO)[C@H](O)[C@H](O)[C@H]3O)c(C)c2oc1=O | -0.2 | -4 | 1
49 | CCN(C(=O)c1c([N+](=O)[O-])cnn1C)c1ccccc1 | -0.5 | 6 | /
50 | COc1ccc(N2CCN(CC(=O)Nc3ccccc3C(=O)NC(C)c3ccccc3)CC2)cc1 (centres undefined) | -0.7 | -6 | /
51 | CC1(C)CC(=O)c2cc(OCC(=O)O)ccc2O1 | 1.0 | 3 | -7
52 | CC(C)n1nnnc1C1c2ccccc2C(=O)N1Cc1cccnc1 (centres undefined) | -0.8 | 3 | /
53 | COc1ccccc1C(=O)NCCC(=O)N1CCCC(C(F)(F)F)C1 (centres undefined) | -0.7 | 1 | /
54 | COc1c(C)cc(C(=O)C2CCCN(C(=O)Cn3nc(C)nc3C)C2)cc1C (centres undefined) | -0.1 | 6 | 3
55 | COc1cccc(CN(CC(=O)NC2CCCC2)C(=O)CCC(=O)Nc2cc(C)on2)c1 | -0.2 | 4 | 11
56 | CCc1ccc(N(C(=O)CNC(=O)c2ccco2)C(C(=O)NCC2CCCO2)c2ccccc2)cc1 (centres undefined) | -1.0 | 0 | -8
57 | O=C(OCc1nnc(-c2ccccc2)o1)c1cccc(-n2cnnn2)c1 | 0.2 | -10 | 0
58 | CN(C)CCCNC(=O)c1ccc(Cl)c(S(=O)(=O)N(C)c2ccccc2)c1 | 0.3 | -2 | 4
59 | O=C(NCC1CCCO1)C1CCN(S(=O)(=O)c2ccccc2)CC1 (centres undefined) | -1.6 | -5 | 0
60 | COCCn1c(=O)[nH]c2cc(C(=O)NCc3ccccc3Cl)ccc2c1=O | 1.5 | / | 5
61 | CC(=O)COc1ccc2c(c1C)O/C(=C\c1ccco1)C2=O | 0.2 | / | ?

no. | D2 PAM | Six1-Eya2 inh | TRPML1 blocker
46 | -8 | -5 | 9
47 | 5 | -9 | -4
48 | -11 | 2 | 11
49 | 0 | 1 | 11
50 | 2 | ? | -1
51 | -12 | 6 | -12
52 | / | -2 | /
53 | -12 | -7 | -3
54 | -7 | -1 | 1
55 | -7 | 2 | -8
56 | -3 | -4 | -11
57 | 8 | 4 | 1
58 | -20 | 5 | 17
59 | 7 | 7 | -3
60 | / | / | 9
61 | -6 | -13 | -19
